Source: PubChem BioAssay
Rango dissoc inh – prevents RanGTP from dissociating the Rango-importin beta complex; 340,000 compounds, 0.071% hits; Potency, µM (doses to about 46.1 µM), without a hit: top-dose activity change, negative = inhibition; O95149+P62826; Biochemical FRET Rango-importin beta, RanGTP-induced dissociation; active means falling FRET ratio curve, often poorly fitted, with flat reads before Ran was added; inconclusive means other falling curves, or compound fluorescence or quenching; inactive means flat or rising ratio curve;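 further: potency means the concentration at half of the fitted maximal effect; % of control where 0% means no effect; nearly all actives have a fitted effect of over 45% in size; -100% = wells without RanGTP and RCC1; the record marks most hits as doubtful in a second field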
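FRET read at 45 min, room temperature: inhibitors block the CFP/YFP signal rise when RanGTP (0.6 uM Ran, 2 mM GTP, 0.2 uM RCC1) frees Rango (0.1 uM) from importin beta (0.25 uM). Pre-read after 5 min compound exposure flags interference.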
GLA inh pH 4.5 – alpha-galactosidase A (human) inhibition, pH 4.5. 230,000 tested, under 10 active. activity change, negative = inhibition, % at 105 µM. AID 1467. purified enzyme, 4-MU-alpha-Gal fluorescence, pH 4.5. P06280; inconclusive = small, poorly fitted or top-dose-only inhibition, or a rising curve; inactive = flat fitted curve, though single readings scatter; no compound was filed as active;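 further: 0% = full activity with enzyme and -100% = basal without enzyme; dose as in the result columns while the protocol names 77 µM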
miR-21 reporter – raises the signal of a miR-21 reporter; Potency, µM (series often up to 38.3 µM), for the others: at the top dose reporter change, positive = more light; HeLa miR-21 FLuc reporter, luciferase, 48 h; AID 2288; 340,000 tested, under 10 active; active = well fitted rising curve with a large enough effect; inconclusive = small, poorly fitted or top-dose-only effect; inactive = no such curve, though single readings can be large or run the other way;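 further: % of control where 0% means no effect; miR-21 action dims this reporter so a rising signal means less miR-21 action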
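HeLa cells stably expressing CMV-driven firefly luciferase with a downstream miR-21 binding sequence, endogenously expressing miR-21, were treated with titrations (up to about 40uM final) for 48 hours at 37 degree Celsius. Luciferase luminescence was read after lysis.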
Rango-impB inh – Rango-importin beta binding inhibition. Rango CFP/YFP FRET sensor + importin beta, 45 min. Q14974. AID 540263. Potency, µM (highest dose often 92.2 µM), without a hit: at the highest dose inhibition of complex formation. 340,000 compounds, 0.031% hits; active = rising FRET ratio curve, often small or poorly fitted; inconclusive = mostly compound fluorescence or quenching in the first reads; inactive = flat curves in all reads;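 further: potency means the concentration at half of the fitted maximal effect; 0% = DMSO wells and 100% = buffer wells lacking importin beta; nearly all actives have a fitted effect of over 15% in size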
Target sequence (Q14974 whole entry, looked up): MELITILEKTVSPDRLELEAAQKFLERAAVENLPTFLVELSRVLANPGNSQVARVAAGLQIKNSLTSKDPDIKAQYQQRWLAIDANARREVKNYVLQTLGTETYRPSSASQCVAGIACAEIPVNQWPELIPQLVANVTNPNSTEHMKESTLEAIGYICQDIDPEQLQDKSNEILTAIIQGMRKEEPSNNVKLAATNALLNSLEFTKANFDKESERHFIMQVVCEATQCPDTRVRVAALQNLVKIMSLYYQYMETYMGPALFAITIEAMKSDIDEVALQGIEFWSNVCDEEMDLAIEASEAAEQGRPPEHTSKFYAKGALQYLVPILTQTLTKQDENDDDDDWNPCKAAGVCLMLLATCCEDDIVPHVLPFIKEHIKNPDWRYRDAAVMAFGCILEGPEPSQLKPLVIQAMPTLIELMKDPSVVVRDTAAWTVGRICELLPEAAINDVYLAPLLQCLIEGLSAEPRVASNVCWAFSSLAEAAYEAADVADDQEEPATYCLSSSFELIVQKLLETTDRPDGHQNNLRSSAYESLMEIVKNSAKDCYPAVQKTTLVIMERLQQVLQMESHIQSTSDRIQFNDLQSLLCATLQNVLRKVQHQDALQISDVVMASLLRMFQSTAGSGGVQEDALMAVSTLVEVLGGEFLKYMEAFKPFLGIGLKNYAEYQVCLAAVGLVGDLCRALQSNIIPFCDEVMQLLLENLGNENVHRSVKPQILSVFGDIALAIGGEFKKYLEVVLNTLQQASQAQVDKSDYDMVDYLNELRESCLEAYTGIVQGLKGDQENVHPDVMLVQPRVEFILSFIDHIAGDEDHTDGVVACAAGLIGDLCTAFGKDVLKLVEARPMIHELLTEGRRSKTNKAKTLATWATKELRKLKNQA
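FRET biosensor Rango (snurportin 1 IBB between N-terminal EYFP and C-terminal Cerulean), 50 nM in PBS/1 mM DTT/0.02% Tween-20/0.1% BSA, preincubated 5 min RT with compound; 0.125 microM importin beta added, 45 min RT, CFP/YFP FRET ratio read.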
Starred values were filed as active, the others as inactive; & = joins results of further samples. Only part of the results is shown; the hit share may differ from the screen's.

Start of the data: the first 2 entries, to show the layout:
For COc1ccccc1-c1nnc(SCC(=O)NCc2c(C)c(Cl)cc(C(C)C)c2O)o1 the results were Rango dissoc inh 2%, GLA inh pH 4.5 -16, miR-21 reporter 13% and Rango-impB inh -1.7%.
Screening O=C(CCC1CCCCC1)NCc1cccnc1 returned Rango dissoc inh 5%, miR-21 reporter -5% and Rango-impB inh -1.1%.

The listing, repeating the preview:
For COc1ccccc1-c1nnc(SCC(=O)NCc2c(C)c(Cl)cc(C(C)C)c2O)o1 the results were Rango dissoc inh 2%, GLA inh pH 4.5 -16, miR-21 reporter 13% and Rango-impB inh -1.7%.
Screening O=C(CCC1CCCCC1)NCc1cccnc1 returned Rango dissoc inh 5%, miR-21 reporter -5% and Rango-impB inh -1.1%.
CCC(C)[C@H](NC(=O)[C@@H]1CSC2c3ccccc3C(=O)N21)C(=O)NC1CCCC1 (some centres not stated) was read as Rango dissoc inh 30%, miR-21 reporter -5% and Rango-impB inh 0.3%.
Screening COc1ccc(CCN=C(N)NS(=O)(=O)c2ccc(C)cc2)cc1OC returned Rango dissoc inh -18%, GLA inh pH 4.5 -11, miR-21 reporter -13% and Rango-impB inh -5.1%.
Screening CCN(CC(=O)Nc1ccc(OC)cc1)C(=O)c1ccc2c(=O)n3c(nc2c1)CCC3 returned Rango dissoc inh 2% and Rango-impB inh 1.0%.
`Cn1cnnc1SCC(=O)Nc1ccc(F)cc1` gave Rango dissoc inh -1%, miR-21 reporter -3% and Rango-impB inh -1.3%.
CC1CCN(Cc2nnc(-c3cccc(Br)c3)o2)CC1 was read as Rango dissoc inh 3%, miR-21 reporter -55% and Rango-impB inh -4.7%.
For O=C(Nc1ccccc1Cl)c1ccn[nH]1 the results were Rango dissoc inh -7%, GLA inh pH 4.5 7, miR-21 reporter -55% and Rango-impB inh -3.8%.
For CCN(CC(=O)NCc1ccc(Cl)cc1)C(=O)c1ccc(C#N)cc1 the results were Rango dissoc inh 1%, miR-21 reporter 1% and Rango-impB inh -7.3%.
CCCn1c(CN2CCCCC2C)nc2c1c(=O)n(C)c(=O)n2C (configuration not stated) was read as Rango dissoc inh 1%, GLA inh pH 4.5 -5, miR-21 reporter -1% and Rango-impB inh 4.1%.
Screening CN(C)Cc1c(O)ccc2c3c(c(=O)oc12)CCCCC3 returned Rango dissoc inh inconclusive, GLA inh pH 4.5 inconclusive, miR-21 reporter -1% and Rango-impB inh inconclusive.
For Cc1ccccc1NC(=O)C1C2CCCCC21 (configuration not stated) the results were Rango dissoc inh -2%, miR-21 reporter -10% and Rango-impB inh -3.4%.
O=C(CS(=O)(=O)c1c[nH]c2ccccc12)Nc1ccc(F)cc1 was read as Rango dissoc inh -1%, miR-21 reporter -4% and Rango-impB inh -2.9%.
CC(C)c1nc2ccc(NC(=O)C34CC5CC(CC(C5)C3)C4)cc2[nH]1 was read as Rango dissoc inh -3%, GLA inh pH 4.5 15, miR-21 reporter -53% and Rango-impB inh 0.0%.
For CC(=O)Nc1ccc(C(=O)NNC(=O)c2cccs2)cc1 the results were Rango dissoc inh 0%, GLA inh pH 4.5 -3, miR-21 reporter -8% and Rango-impB inh 3.2%.
Screening COCCOC(=O)C1=C(C)NC(=O)NC1c1c(Cl)nc2c(C)cccn2c1=O (configuration not stated) returned GLA inh pH 4.5 1 and miR-21 reporter -8%.
Screening O=C(N/N=C/c1cccc([N+](=O)[O-])c1)C1CC(=O)N(c2ccc(Br)cc2)C1 (configuration not stated) returned Rango dissoc inh 9%, GLA inh pH 4.5 0, miR-21 reporter -1% and Rango-impB inh -4.5%.
Screening C(=N\N1CCN(C2c3ccccc3-c3ccccc32)CC1)/c1cccs1 returned Rango dissoc inh -2%, GLA inh pH 4.5 -7, miR-21 reporter -1% and Rango-impB inh -0.3%.
COc1ccc(/C=C/C(=O)N(Cc2ccccc2)c2ccccn2)cc1OC was read as Rango dissoc inh 30%, GLA inh pH 4.5 6, miR-21 reporter -28% and Rango-impB inh 0.2%.
Screening Cc1ccc(SCC(=O)NC(C)(C)C)cc1 returned Rango dissoc inh -8%, GLA inh pH 4.5 8, miR-21 reporter -34% and Rango-impB inh -1.7%.
For COc1cc(OC)c2c(-c3ccccc3)cc(C3CCCCC3)nc2c1 the results were Rango dissoc inh -8% and Rango-impB inh -1.3%.
Screening Cc1nn(Cc2ccccc2)c(C)c1N returned Rango dissoc inh -12%, GLA inh pH 4.5 5, miR-21 reporter -13% and Rango-impB inh 0.5%.
For COc1cc2c(cc1OC)CN(C(=O)c1sccc1C)CC2 the results were Rango dissoc inh 0%, GLA inh pH 4.5 -4, miR-21 reporter -1% and Rango-impB inh -0.5%.
CCOc1ccc(C(=O)NC(=S)Nc2ccc(N3CCC(C)CC3)cc2)cc1[N+](=O)[O-] was read as Rango dissoc inh -2%, GLA inh pH 4.5 9, miR-21 reporter -1% and Rango-impB inh -1.5%.
CC(NC(=O)c1cccs1)C(S)c1ccccc1 (configuration not stated) was read as Rango dissoc inh 2%, miR-21 reporter 2% and Rango-impB inh -3.7%.
For O=S(=O)(NCc1csc(-c2cccs2)n1)c1ccc(Cl)cc1 the results were Rango dissoc inh -10%, GLA inh pH 4.5 -6, miR-21 reporter -9% and Rango-impB inh -3.6%.
`O=C(COc1cccc(F)c1)N[C@@H](Cc1ccccc1)c1nc2ccccc2[nH]1` gave Rango dissoc inh -18%, GLA inh pH 4.5 7, miR-21 reporter 3% and Rango-impB inh 0.1%.
For COc1ccc(OCCN2CCN(S(=O)(=O)c3ccccc3C(F)(F)F)CC2)cc1 the results were Rango dissoc inh 27% and Rango-impB inh 0.9%.
For COc1ccccc1NC(=O)COC(=O)c1ccccn1 the results were Rango dissoc inh 10%, miR-21 reporter 0% and Rango-impB inh 0.0%.
For CCOc1ccccc1NC(=O)NC1(C(=O)N2CCOCC2)CCCCC1 the results were Rango dissoc inh -23%, GLA inh pH 4.5 3, miR-21 reporter -2% and Rango-impB inh -6.8%.
Screening Nc1nnc(N2CCCCC2)s1 returned Rango dissoc inh 3%, GLA inh pH 4.5 0, miR-21 reporter -4% and Rango-impB inh -1.9%.
`CCC(CC)C(=O)N1CCN(Cc2ccc3c(c2)OCO3)CC1` gave Rango dissoc inh -4%, GLA inh pH 4.5 1, miR-21 reporter 1% and Rango-impB inh 0.8%.
Screening CCCCc1nc(NCCNC(=O)c2ccccc2)c(C#N)c2c1CSC(C)(C)C2 returned Rango dissoc inh -20%, GLA inh pH 4.5 -13, miR-21 reporter 8% and Rango-impB inh -3.7%.
Screening COc1ccccc1Cn1[nH]nnc1=S returned Rango dissoc inh -1%, GLA inh pH 4.5 1, miR-21 reporter 0% and Rango-impB inh 7.4%.
`CCOC(=O)c1ccc(S(=O)(=O)Nc2ccc(N3CCOCC3)cc2)cc1` gave Rango dissoc inh 12%, miR-21 reporter 1% and Rango-impB inh -0.2%.
`O=C(C1=C[C@@H](c2coc3ccccc3c2=O)C[C@@H](OCCCCO)O1)N1CCOCC1` gave Rango dissoc inh -2%, GLA inh pH 4.5 4, miR-21 reporter 1% and Rango-impB inh 3.8%.
Screening COc1ccc(Cc2nc3ccc(C(=O)N4C[C@@H](C)O[C@@H](C)C4)cc3o2)cc1OC returned Rango dissoc inh 16%, miR-21 reporter -18% and Rango-impB inh 0.0%.
For COc1ccc(CN(C(=O)c2cccs2)c2ccccc2)cc1 the results were Rango dissoc inh -26%, GLA inh pH 4.5 4, miR-21 reporter -1% and Rango-impB inh 1.4%.
`Cc1cc2ncn(C(=O)c3ccc(F)cc3)c2cc1C` gave Rango dissoc inh 2%, miR-21 reporter -5% and Rango-impB inh -3.3%.
CCN1CCN(c2ccc(S(=O)(=O)N3CCCCC3)cc2NC(=O)Cc2ccccc2F)CC1 was read as Rango dissoc inh -3% and Rango-impB inh 0.8%.
For CC(C)(C)OC(=O)N1CCN(C(=O)c2[nH]cnc2C(=O)N[C@@H](Cc2ccccc2)C(=O)OCc2ccccc2)CC1 the results were Rango dissoc inh -12%, miR-21 reporter 3% and Rango-impB inh -2.4%.
COc1cc(NC(=O)Cn2cnc3sc(C)c(S(=O)(=O)N4CCN(C)CC4)c3c2=O)cc(OC)c1OC was read as GLA inh pH 4.5 -1 and miR-21 reporter -2%&3%.
For COc1ccc2c(c1)[nH]c1c(=O)n(N)cnc12 the results were Rango dissoc inh -4%, GLA inh pH 4.5 -2, miR-21 reporter -2% and Rango-impB inh 0.2%.
For CN(C)/C=C1\N=C(c2cccs2)OC1=O the results were Rango dissoc inh 10%, GLA inh pH 4.5 -16, miR-21 reporter -17% and Rango-impB inh 0.8%.
CC1(C)CC(=O)c2cc3c(N)c(C(=O)NCc4ccccc4)sc3nc2C1 was read as Rango dissoc inh -4%, GLA inh pH 4.5 4, miR-21 reporter 1% and Rango-impB inh 7.3%.
Cc1occc1C(=O)N/N=C/c1ccc(Br)s1 was read as Rango dissoc inh -7%, GLA inh pH 4.5 6, miR-21 reporter -61% and Rango-impB inh 1.2%.
`COc1ccc(NC(=O)CSc2nnc(-c3cccs3)n2-c2ccccc2)cc1` gave Rango dissoc inh -2%, GLA inh pH 4.5 -3, miR-21 reporter 0% and Rango-impB inh 0.8%.
`COC(=O)N/N=C/c1ccc([N+](=O)[O-])o1` gave Rango dissoc inh 7%, GLA inh pH 4.5 -11, miR-21 reporter 18% and Rango-impB inh 0.2%.
Screening CCOC(=O)c1sc2nc3c(cc2c1N)COC(C)(CC)C3 (configuration not stated) returned Rango dissoc inh inconclusive, GLA inh pH 4.5 0, miR-21 reporter -14% and Rango-impB inh inconclusive.
COc1nsnc1NS(=O)(=O)c1ccc(NC(=S)NC(=O)c2ccncc2)cc1 was read as Rango dissoc inh 3%, GLA inh pH 4.5 1, miR-21 reporter -4% and Rango-impB inh -1.4%.
`O=C(NC1C=CS(=O)(=O)C1)c1sc2ccccc2c1Cl` (configuration not stated) gave Rango dissoc inh 15%, GLA inh pH 4.5 6, miR-21 reporter 24% and Rango-impB inh 6.2%.
Screening O=c1[nH][nH]cc1C=Nc1ccccc1Cl returned Rango dissoc inh 13%, GLA inh pH 4.5 1, miR-21 reporter 2% and Rango-impB inh -1.0%.
Screening Cc1ccn(C(=O)c2cc3cc(Cl)ccc3oc2=O)n1 returned Rango dissoc inh 9%, GLA inh pH 4.5 4, miR-21 reporter -10% and Rango-impB inh -1.8%.
`CN(c1ccccc1)S(=O)(=O)c1cccc(C(=O)OCC(=O)Nc2ccc3[nH]c(=O)[nH]c3c2)c1` gave Rango dissoc inh 0% and Rango-impB inh 3.6%.
`CN1CCN(C(=O)c2ccc(COc3ccc(C(C)(C)C)cc3)o2)CC1` gave Rango dissoc inh 7%, GLA inh pH 4.5 -5, miR-21 reporter -15% and Rango-impB inh -3.2%.
For CNC(=O)COC(=O)/C=C/c1c(C)nn(-c2ccccc2)c1C the results were Rango dissoc inh -1%, GLA inh pH 4.5 -8, miR-21 reporter -9% and Rango-impB inh -1.2%.
Screening COC(=O)c1ccc(N2NC(=O)/C(=C/c3ccc(OC)c(OC)c3)C2=O)cc1 returned Rango dissoc inh -2%, miR-21 reporter -2% and Rango-impB inh 1.0%.
Screening CCC(=O)Oc1ccc(-c2cnc3ccccc3n2)cc1 returned Rango dissoc inh -4%, GLA inh pH 4.5 6, miR-21 reporter -29% and Rango-impB inh -1.9%.
For CCOc1ccc(OCCOc2cccc(C(F)(F)F)c2)cc1 the results were Rango dissoc inh 0%, GLA inh pH 4.5 -13, miR-21 reporter -1% and Rango-impB inh -0.5%.
`NS(=O)(=O)c1ccc(N2CCN(C(=O)C3COc4ccccc4O3)CC2)nc1` (configuration not stated) gave Rango dissoc inh inconclusive and Rango-impB inh 1.9%.
`COCCn1c(C)cc(C(=O)CSc2nc3ccccc3c(=O)n2Cc2ccco2)c1C` gave Rango dissoc inh 1%, GLA inh pH 4.5 -14, miR-21 reporter -54% and Rango-impB inh 1.7%.
For Cn1c(Cc2ccccc2)nnc1SCC(=O)NC1CCCC1 the results were Rango dissoc inh -10%, miR-21 reporter -2% and Rango-impB inh -2.4%.
`CCC1NC(C(=O)O)Cc2c1[nH]c1ccccc21` (configuration not stated) gave Rango dissoc inh inconclusive and Rango-impB inh inconclusive.
